# Screens deposited in PubChem by several laboratories.
# HSV replic up = enhancers of HSV replication in host cells, fold increase, host cell viability. maximum fold increase. 0.005% of 220,000 active. AID 1956, 2009. HSV replication augmentation in cells;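 active = peak rise of 1.5-fold or more in the series; inconclusive = self-fluorescent or not available for retest; tested in PC3 cells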;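 also: first round at 10 µM; read as green reporter fluorescence; hits show the peak of a series up to 25 µM; 1 = signal of infected wells without compound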
# PKD1 inh = inhibitors of human PKD1 kinase, biochemical, fluorescence polarization. Serine/threonine-protein kinase D1 (Homo sapiens), Q15139. PKD1 kinase fluorescence polarization assay. inhibition, %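 (about 10 µM by stock and volumes)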. 0.056% of 200,000 active;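 active = inhibition of 50% or more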;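 also: controls were vehicle for no effect and a reference inhibitor for full effect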
# GALR2 ag = GALR2 receptor agonists, primary screen, cell-based; Galanin receptor type 2 (Homo sapiens), O43603; GALR2-expressing cells, agonist activation read-out; activation, %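 (tested at 5 µM)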; 0.48% of 140,000 active;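 active = above mean plus 3 SD of all compounds, about 5% in these data, not always enough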;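 also: 0% = vehicle buffer wells and 100% = reference agonist at full effect; tested in CHO reporter cells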
# Target sequence (O43603 whole entry, looked up): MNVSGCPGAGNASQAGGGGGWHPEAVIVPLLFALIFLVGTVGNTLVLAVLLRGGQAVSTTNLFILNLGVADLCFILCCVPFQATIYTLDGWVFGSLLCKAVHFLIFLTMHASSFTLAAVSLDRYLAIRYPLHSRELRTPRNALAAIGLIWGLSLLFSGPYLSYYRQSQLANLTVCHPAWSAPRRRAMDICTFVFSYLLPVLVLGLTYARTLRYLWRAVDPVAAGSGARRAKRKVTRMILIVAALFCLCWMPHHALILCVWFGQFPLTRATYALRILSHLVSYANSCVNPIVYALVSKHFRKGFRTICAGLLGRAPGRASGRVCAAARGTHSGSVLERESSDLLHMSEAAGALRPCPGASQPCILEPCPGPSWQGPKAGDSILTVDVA
# RGS16-Gao = modulators of RGS16 binding to Galphao, primary screen, biochemical, human proteins, multiplexed bead flow cytometry; Regulator of G-protein signaling 16 (Homo sapiens) + Guanine nucleotide-binding protein …; bead-based flow cytometry RGS16-Galphao binding, fluorescence; actives lie on both sides; binding response (% of control), % at 10 µM; 0.38% of 220,000 active;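 active = below 25% or above 175%, edge rows of some plates excepted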;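 also: Galphao activated by GDP with aluminum fluoride before binding; 100% = wells without compound and 0% = beads without RGS; some results beyond the cut were filed as inactive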
# Target sequence (O15492 whole entry, looked up): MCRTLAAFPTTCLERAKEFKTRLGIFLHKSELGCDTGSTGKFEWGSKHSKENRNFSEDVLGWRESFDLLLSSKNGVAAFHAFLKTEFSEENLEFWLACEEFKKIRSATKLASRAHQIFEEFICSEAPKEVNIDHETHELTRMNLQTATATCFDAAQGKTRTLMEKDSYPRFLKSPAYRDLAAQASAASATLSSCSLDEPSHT
# Target sequence (P09471 whole entry, looked up): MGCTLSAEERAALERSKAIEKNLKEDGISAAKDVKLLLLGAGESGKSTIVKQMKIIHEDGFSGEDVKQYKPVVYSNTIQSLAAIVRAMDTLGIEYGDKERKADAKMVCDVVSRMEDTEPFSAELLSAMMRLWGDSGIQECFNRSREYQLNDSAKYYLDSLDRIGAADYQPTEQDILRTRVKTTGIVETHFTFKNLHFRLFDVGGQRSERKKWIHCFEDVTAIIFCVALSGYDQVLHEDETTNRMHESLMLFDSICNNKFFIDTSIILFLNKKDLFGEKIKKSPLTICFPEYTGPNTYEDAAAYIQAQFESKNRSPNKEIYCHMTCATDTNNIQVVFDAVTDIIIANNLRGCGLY
# INS promoter inh = inhibitors of insulin promoter-driven GFP, primary screen, imaging, TRM-6 cells (human fetal islet line), eGFP reporter, cell count. reporter expression induced with tamoxifen. inhibition, % at 2 µM. 0.9% of 130,000 active. AID 1273, 2008;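 active = inhibition above the mean plus 3 SD, with well images judged a real hit on visual review, cut at about 60% in these data, passing the limit was not always enough; inconclusive = inhibition over the cutoff but images rejected on review; inactive = inhibition not above the cutoff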
# INS promoter inh cell count = second read-out of INS promoter inh, no call of its own (marks repeat the call); normalized cell count, %; measured here: cell count, toxicity; reference of the scale not given here;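 cells exposed to compound for 48 h; stained nuclei by imaging scaled within each plate; lower means fewer cells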
# HSV replic up primary fold = also measured in HSV replic up; calls as there; fold increase; compound at 10 µM; measured here: primary screen fold increase 10 uM; tested in PC3 cells;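 GFP signal in the first replicate; 1 = infected wells without compound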
# Numbers without * were called inactive; i = inactive; ? = inconclusive; nt = no result given.
# Screens in order: HSV replic up, HSV replic up primary fold, PKD1 inh, GALR2 ag, RGS16-Gao, INS promoter inh, INS promoter inh cell count
COCCNC(=S)N1CCC(NC(=O)c2ccco2)CC1
    i, 1, 2, nt, 114, nt, nt
CS(=O)(=O)Nc1nnc(C2CCCC2)s1
    i, 1.1, 0, nt, 102, nt, nt
COc1cc2c(cc1NC(=O)COC(=O)/C=C/c1ccc([N+](=O)[O-])cc1)oc1ccccc12
    i, 0.86, nt, nt, 107, nt, nt
Cc1ccc(SCCNS(=O)(=O)c2ccc3c(c2)OCCO3)cc1
    i, 0.91, 5, -3.4, 98, -50, 142
CC(C)Cn1c(N)c(C(=O)COC(=O)c2cc(C3CC3)nc3ccccc23)c(=O)n(C)c1=O
    i, 0.79, -6, -0.5, 108, 25, 97
O=C(CSc1ccc2c(c1)OCCO2)Nc1ccc(Cl)cn1
    i, 0.94, -14, -2.2, 74, -30, 115
COc1ccc(N2C(=O)NC3CC2(C)Oc2ccccc23)cc1OC (centres undefined)
    i, 0.95, -12, -1.8, 100, 6, 99
CCOC(=O)c1cc2c(=O)n3cccc(C)c3nc2n(C)c1=N
    nt, nt, -13, 1.5, 100, -41, 102
c1ccc(-n2nnnc2-c2cnc(-c3cccnc3)nc2-c2cccs2)cc1
    i, 0.95, -3, 0.1, 35, -6, 115
N#Cc1nc(-c2ccco2)oc1NCCc1ccccc1
    i, 0.92, -7, -0.4, 96, -12, 66
Cc1ccc(S(=O)(=O)NCCOc2nc(N(C)C)nc(N3CCOCC3)n2)cc1
    i, 1.1, -10, -2.3, 98, -26, 33
CN(Cc1ccccc1)C(=O)COC(=O)C1=NNC(=O)CC1
    i, 0.99, -9, -0.6, 93, 3, 75
Cc1cccc(N=C2NC(=O)S/C2=C\c2ccco2)c1
    i, 1.6, -6, 0.6, 31, nt, nt
C=COCCn1c(=N)n(CCC)c2ccccc21
    i, 0.82, 6, -4.8, 100, nt, nt
CCOc1cc(CNc2ccc3[nH]c(=O)[nH]c3c2)ccc1OCC(=O)NC(C)(C)C
    i, 1.1, -8, -2.1, 78, 38, 92
C/C(=N\OC(=O)c1ccc(Br)cc1)c1ccccn1
    i, 0.96, -16, -0.7, 44, 16, 99
CCCc1nnc(NC(=O)C(=O)NCCN(C)C)s1
    i, 1.1, nt, nt, 95, nt, nt
CN(Cc1nccs1)C(=O)CC1C(=O)NCCN1Cc1ccc(-c2ccccc2)cc1 (centres undefined)
    i, 0.93, nt, nt, 89, nt, nt
COc1ccc(NC(=O)C(=O)NCCN2CCN(C(=O)c3ccco3)CC2)cc1
    i, 1, -2, nt, 104, 29, 80
CC(C)NC(=O)c1ccc2c3n(nc2c1)-c1ccccc1CO3
    i, 0.83, nt, nt, 102, nt, nt
O=C(Nc1ccc2c3c(cccc13)CC2)c1cccc([N+](=O)[O-])c1
    i, 1, 2, 1.2, 104, nt, nt
C=CCNC(=O)NC(=O)COC(=O)c1nc2nccc(C)n2n1
    i, 1, -1, nt, 94, -100, 24
CCCCc1ccc(NS(=O)(=O)c2cccs2)cc1
    i, 0.95, -9, -2.6, 100, 12, 57
CCC(C)(c1ccc(C=O)s1)c1ccc(C=O)s1
    i, 0.99, -3, -2.5, 102, 10, 136
COc1ccc(C(C)=O)c2c(O)cccc12
    i, 1.1, 2, -1.2, 110, nt, nt
Cn1c(SCC(=O)N/N=C/c2ccc([N+](=O)[O-])s2)nnc1-c1ccc(Cl)cc1
    i, 0.77, -12, 0.0, 102, -66, 96
COc1ccc(CNC(=O)C/C(C)=N/NC(=O)C(c2ccccc2)c2ccccc2)cc1
    i, 0.89, -2, -1.3, 106, nt, nt
CN(C)S(=O)(=O)c1cc(NC(=O)[C@H](Cc2ccccc2)N2C(=O)c3ccccc3C2=O)ccc1Cl
    i, 0.83, 0, -0.4, 110, -414, 52
CCOC(=O)c1cnc(SC)nc1Oc1cccc(NC(=O)c2cccc(Cl)c2Cl)c1
    i, 0.94, -1, -2.0, 105, -27, 161
CCn1cc(C(=O)OC)c(=O)c2cc(S(=O)(=O)N(C)C3CCCCC3)ccc21
    i, 0.91, -4, nt, 105, -14, 87

# Pulled one by one from the list above (3):
# Screens in order: HSV replic up, HSV replic up primary fold, PKD1 inh, GALR2 ag, RGS16-Gao, INS promoter inh, INS promoter inh cell count
CCC(C)(c1ccc(C=O)s1)c1ccc(C=O)s1
    i, 0.99, -3, -2.5, 102, 10, 136
COc1ccc(N2C(=O)NC3CC2(C)Oc2ccccc23)cc1OC (centres undefined)
    i, 0.95, -12, -1.8, 100, 6, 99
CCOC(=O)c1cc2c(=O)n3cccc(C)c3nc2n(C)c1=N
    nt, nt, -13, 1.5, 100, -41, 102

# Sorted by heavy-atom count (lowest first): 3 of the compounds above.
# Screens in order: HSV replic up, HSV replic up primary fold, PKD1 inh, GALR2 ag, RGS16-Gao, INS promoter inh, INS promoter inh cell count
COCCNC(=S)N1CCC(NC(=O)c2ccco2)CC1
    i, 1, 2, nt, 114, nt, nt
CCn1cc(C(=O)OC)c(=O)c2cc(S(=O)(=O)N(C)C3CCCCC3)ccc21
    i, 0.91, -4, nt, 105, -14, 87
COc1cc2c(cc1NC(=O)COC(=O)/C=C/c1ccc([N+](=O)[O-])cc1)oc1ccccc12
    i, 0.86, nt, nt, 107, nt, nt

# Returning to the listing; the 2 compounds before the break are reprinted first.
# Screens in order: HSV replic up, HSV replic up primary fold, PKD1 inh, GALR2 ag, RGS16-Gao, INS promoter inh, INS promoter inh cell count
CCOC(=O)c1cnc(SC)nc1Oc1cccc(NC(=O)c2cccc(Cl)c2Cl)c1
    i, 0.94, -1, -2.0, 105, -27, 161
CCn1cc(C(=O)OC)c(=O)c2cc(S(=O)(=O)N(C)C3CCCCC3)ccc21
    i, 0.91, -4, nt, 105, -14, 87
COc1ccc(C(=O)CSc2nnc(CN3CCCC3)n2-c2ccc(F)cc2)c(OC)c1
    i, 0.75, -4, 0.3, 43, -85, 46
COc1cc(C(N)=O)cc(Cl)c1OCc1ccccc1
    i, 0.84, -1, -1.1, 98, 17, 108
Cc1cccc(NC(=S)N2CCC(C(N)=O)(N3CCCCC3)CC2)c1C
    i, 0.96, 1, nt, 109, 17, 103
O=C(C1=NN(c2ccccc2)C2C(=O)N(c3ccc(Cl)cc3)C(=O)C12)c1ccccc1 (centres undefined)
    ?, nt, -9, -2.0, 96, 16, 111
COC(=O)c1scc(S(=O)(=O)C(C)(C)C)c1N
    i, 1, nt, nt, 102, nt, nt
Oc1ccc(-c2[nH]ncc2-c2nc3ccccc3s2)c(O)c1
    i, 0.92, 4, nt, 111, 33, 116
COC(C[C@H]1O[C@H]1[C@H](O)[C@@H](C)OCc1ccccc1)OC
    i, 0.58, nt, nt, 104, nt, nt
O=C(Nc1ccccc1-c1ccccc1)NC1CCN(C(=O)N2CCOCC2)CC1
    i, 1, -1, -1.1, 124, -23, 125
Cc1cc(N(CC(=O)O)S(C)(=O)=O)ccc1Br
    i, 1, -8, -1.5, 29, -172, 44
Cc1ccc(NC(=O)C2c3ccccc3Oc3ccccc32)nc1
    i, 0.97, -4, nt, 102, -86, 108
CCOC(=O)c1ccccc1NS(=O)(=O)c1ccc(C)cc1
    i, 0.8, 3, -0.6, 94, 21, 81
Cc1sc2ncnc(NCc3ccccc3)c2c1C
    i, 0.99, 2, -0.7, 94, 19, 107
CC(C)(C)c1ccc(/C=N/NC(=S)NCc2ccccc2)cc1
    i, 0.83, -9, 0.8, 102, 45, 102
O=C(c1cccc(F)c1)N1CCN=C1SCc1cccnc1
    i, 0.84, -17, 0.1, 103, nt, nt
CC1=NN(C(=O)COc2ccc(C)c(C)c2)C(O)(c2ccccc2)C1 (centres undefined)
    i, 0.96, -5, -0.7, 156, -27, 103
C/C(CC(=O)Nc1ccccn1)=N\NC(=O)c1cccc(C)c1
    i, 0.88, -1, nt, 112, nt, nt
CCCCn1c(SCC(=O)Nc2cc(C)on2)nnc1-c1ccco1
    i, 1, 4, -0.4, -21, -14, 98
CC(C)(C)C(=O)Nc1ccc(N2CCN(c3ccc(C(F)(F)F)cn3)CC2)nc1
    i, 1, nt, nt, 104, nt, nt
Cc1cccc(Oc2ncc(-c3ccc(Cl)cc3)cn2)c1C
    i, 0.92, -9, -1.7, 107, 34, 100
Cc1ccc(Sc2ncccc2C(=O)O)c(C)c1
    nt, nt, 0, -1.7, 91, 54, 101
Cc1nc(N2CCN(c3ccccc3)CC2)nc2c1C(=O)CCC2
    i, 1.2, 1, -1.4, 105, nt, nt
Cc1ccc(Cl)cc1Nc1nc(-c2sc(NC(=O)c3cccc(Cl)c3)nc2C)cs1
    i, 0.94, -17, -2.1, 73, -8, 144
O=C(O)c1ccc(NC(=S)NC(=O)c2cccc(COc3ccccc3)c2)cc1
    i, 0.95, -3, nt, 104, nt, nt
Cc1cccc(C)c1NC(=O)NN1C(C)CCCC1C (centres undefined)
    i, 0.93, -9, nt, 102, -44, 70
Cc1cc(C)nc(NC2=NCCN2C(=S)Nc2ccc(C)c(C)c2)n1
    i, 0.97, nt, nt, 100, nt, nt
O=C(Cc1ccc(S(=O)(=O)N2CCCC2)s1)N1CCOCC1
    i, 1, -6, 0.1, 106, nt, nt
Cn1c(SCC(=O)N2CCOCC2)nnc1-c1ccccc1
    i, 0.88, -2, -0.8, 105, -138, 102
Cc1ccc2nc(SC(C)C(=O)Nc3cccc([N+](=O)[O-])c3)[nH]c2c1 (centres undefined)
    i, 0.93, -5, -2.0, 112, 0, 95
CCCCc1ccc(S(=O)(=O)Nc2ccc(C)c(NS(C)(=O)=O)c2)cc1
    i, 0.98, nt, nt, 97, nt, nt
CC(C)N(CC(N)=O)C(=O)c1sc2cc(F)ccc2c1Cl
    i, 1, 0, nt, 91, -65, 101
COc1ccc(NC(=O)c2sccc2SCc2cccc(C(F)(F)F)c2)cc1
    i, 0.99, 4, -0.5, 102, -23, 112
Cc1[nH]n(-c2ccc(Cl)cc2)c(=O)c1/C=N/c1nnc(-c2ccccc2)s1
    i, 0.99, -3, -1.0, 101, 52, 112
Cc1ccc(S(=O)(=O)C2(C(=O)Nc3ccc(Br)cc3)CC2)cc1
    i, 0.94, 3, nt, 100, -25, 148
COC(=O)c1ccc(NC(=O)CSc2nccn2CCc2ccccc2)cc1
    i, 0.93, 1, -1.5, 116, -26, 71
COc1cccc(Nc2nnc(SCn3nnc4ccccc4c3=O)s2)c1
    i, 0.86, -5, -3.4, 96, 3, 93
Cn1c(=O)c2c(nc3sccn32)n(C)c1=O
    i, 0.94, -10, 0.6, 107, 8, 176
S=c1[nH]nc(Cc2ccccc2)n1Cc1ccco1
    i, 0.99, -8, 0.9, 89, 32, 58
COc1cc(SC)ccc1C(=O)N1CCN(c2ccccc2F)CC1
    i, 0.99, 0, nt, 98, nt, nt
CCOc1ccc(NC(=O)COC(=O)CCCc2c[nH]c3ccccc23)cc1
    i, 0.91, -2, -2.1, 105, 30, 153
O=C(NCc1ccccn1)NC12CC3CC(CC(C3)C1)C2
    i, 1, -1, -4.0, 102, 35, 156
COC(=O)NC(=S)N1CCOCC1
    nt, nt, 2, 0.5, 111, -25, 142
CCOC(=O)CCc1c(C)c2ccc(OCc3nn[nH]n3)cc2oc1=O
    i, 0.84, 8, -1.0, 102, 25, 143

# Record cards, from the list above. Order of values: HSV replic up	HSV replic up primary fold	PKD1 inh	GALR2 ag	RGS16-Gao	INS promoter inh	INS promoter inh cell count
# Record of COc1cc(SC)ccc1C(=O)N1CCN(c2ccccc2F)CC1 → i	0.99	0	nt	98	nt	nt
# Record of C=CCNC(=O)NC(=O)COC(=O)c1nc2nccc(C)n2n1 → i	1	-1	nt	94	-100	24
# Record of CN(C)S(=O)(=O)c1cc(NC(=O)[C@H](Cc2ccccc2)N2C(=O)c3ccccc3C2=O)ccc1Cl → i	0.83	0	-0.4	110	-414	52
# Record of O=C(Cc1ccc(S(=O)(=O)N2CCCC2)s1)N1CCOCC1 → i	1	-6	0.1	106	nt	nt
# Record of Cc1cccc(Oc2ncc(-c3ccc(Cl)cc3)cn2)c1C → i	0.92	-9	-1.7	107	34	100

# The order is random, and some 1.3% of all compounds hit somewhere here.
